Mtb MbtI inh – blocks the Mycobacterium tuberculosis siderophore enzyme MbtI. P9WFX0. purified MbtI enzyme, fluorescence intensity read-out. inhibition, %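 (about 17 µg/mL by stock and volumes)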. 0.89% of 100,000 active. AID 493033;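 active means above 50% in both replicates, above 80% if mildly self-fluorescent; inactive means the rest, strongly fluorescent compounds included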;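 further: 0% = mean of negative and 100% = mean of positive controls; one replicate is shown; some compounds called inactive have numbers as strong as hits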
Target sequence (P9WFX0 whole entry, looked up): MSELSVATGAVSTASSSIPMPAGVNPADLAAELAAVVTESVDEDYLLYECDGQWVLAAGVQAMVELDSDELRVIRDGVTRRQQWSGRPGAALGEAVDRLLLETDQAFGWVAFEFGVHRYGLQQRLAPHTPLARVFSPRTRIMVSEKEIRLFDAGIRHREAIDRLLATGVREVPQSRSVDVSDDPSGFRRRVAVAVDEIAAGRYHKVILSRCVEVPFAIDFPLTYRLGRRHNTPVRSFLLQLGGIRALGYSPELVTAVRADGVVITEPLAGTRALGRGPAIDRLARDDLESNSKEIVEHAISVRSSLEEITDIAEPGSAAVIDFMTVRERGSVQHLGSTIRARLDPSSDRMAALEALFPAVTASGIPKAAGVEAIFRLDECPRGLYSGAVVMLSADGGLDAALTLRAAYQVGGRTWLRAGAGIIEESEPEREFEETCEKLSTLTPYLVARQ
MenB inh – inhibitors of Mycobacterium tuberculosis MenB enzyme; P9WNP5; MenB enzyme assay, absorbance read-out; some hits fall short of the stated cut; inhibition, %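 (about 12 µg/mL by stock and volumes)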; 0.43% of 100,000 active; AID 540299;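 active means mean of two replicates above 30%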;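 further: 0% = no compound and 100% = wells with inactive enzyme; the first replicate is given; strong numbers were not always called active; inactives centre near -10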
Target sequence (P9WNP5 whole entry, looked up): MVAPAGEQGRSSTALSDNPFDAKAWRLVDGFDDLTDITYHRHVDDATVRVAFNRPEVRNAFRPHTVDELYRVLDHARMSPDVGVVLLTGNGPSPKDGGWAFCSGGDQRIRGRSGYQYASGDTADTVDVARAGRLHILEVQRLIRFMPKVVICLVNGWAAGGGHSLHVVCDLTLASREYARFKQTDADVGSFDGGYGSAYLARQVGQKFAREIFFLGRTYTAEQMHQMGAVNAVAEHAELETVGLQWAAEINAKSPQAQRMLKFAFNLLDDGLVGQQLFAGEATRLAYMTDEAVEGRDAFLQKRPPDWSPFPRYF
Polio RdRp inh – poliovirus RNA polymerase inhibition; poliovirus polymerase elongation, fluorescence polarization; stronger effect = lower value; % elongation, % (compound at 16.7 µg/mL); P03300; 0.66% of 150,000 active; AID 588519; in the data active means % elongation below about 90%; further: some results filed as inactive read as strong as hits
Polio RdRp inh intensity – recorded beside Polio RdRp inh, whose call it bears; % elongation; measured here: total intensity read-out; formula for this scale not given here;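 total fluorescence in place of polarization; lower means less elongation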
An asterisk follows results filed as active; nt = not tested or not shown. No enrichment for hits, and some 2% of all compounds hit somewhere here.

SMILES | Mtb MbtI inh | MenB inh | Polio RdRp inh | Polio RdRp inh intensity
COc1ccccc1NC(C)C(=O)N/N=C/c1cccs1 (stereo unspecified) | 0 | -20 | 104 | 102
COc1ccc(CNC(=O)NC2CCN(S(=O)(=O)c3ccc(OC)cc3)CC2)cc1 | -8 | -4 | 103 | 101
CCCN(CCC)C(=O)c1cc2c(=O)n3ccccc3nc2s1 | 35 | -3 | 99 | 100
Cc1c(NC(=O)COC(=O)C23CC4CC(CC(O)(C4)C2)C3)c(=O)n(-c2ccccc2)n1C | 9 | -16 | 104 | 109
COC(=O)c1cc2sccc2n1CC#N | 11 | -33 | 103 | 103
COC(=O)c1ccc(COc2ncnc3c2cnn3-c2ccccc2)o1 | 15 | 10 | 102 | 106
CC1CC(C)CN(C(=O)CNCc2ccco2)C1 (stereo unspecified) | 1 | 12 | 99 | 100
O=C1N=C2SC=CN2C(=O)/C1=C\c1ccccc1 | 54 | -41 | 102 | 102
O=c1c2c3c(sc2nc(SCCn2ccnc2)n1-c1ccccc1)CCCC3 | 4 | -25 | 108 | 110
O=C(COC(=O)C12CC3CC(CC(O)(C3)C1)C2)NCc1ccc2c(c1)OCO2 | -3 | 2 | 97 | 102
COc1cc2c(cc1NC(=O)CN1CC(C)OC(C)C1)oc1ccccc12 (stereo unspecified) | 44 | 0 | 111 | 107
CSC(=Nc1c(C)cccc1C)N(C)C | -2 | -4 | 102 | 94
O=C(Nc1ccccc1C(F)(F)F)NN1CCOCC1 | 1 | -17 | 100 | 103
Cc1cc(CO)c(C)n1-c1ccncc1 | nt | -9 | 105 | 113
O=C(Cn1c(=O)c(C(F)(F)F)nc2ccccc21)NCc1ccccc1 | 6 | -13 | 103 | 102
CCCc1c(C(=O)OCC)c(C(=O)OCC)c2c(-c3ccccc3)nc(N3CCOCC3)nn12 | nt | 7 | 104 | 110
COc1ccc(/C=N/NC(=O)CN2CCSCC2)c(OC)c1 | -5 | 13 | 99 | 103
Cc1c(CC(=O)O)c(=O)oc2c(C)c3occ(C(C)(C)C)c3cc12 | -10 | -8 | 99 | 95
CC(=O)Nc1ccc(Nc2cc(C)nc3ccccc23)cc1 | 5 | -16 | 103 | 98
CCn1c2ccccc2c2nnc(SCC(=O)Nc3ccc4c(c3)OCO4)nc21 | -1 | -24 | 100 | 114
O=C(CSc1ncn[nH]1)c1ccco1 | 0 | -7 | 101 | 106
O=C1CCCN1C(c1ccc(Br)cc1)N1CCCC1=O | -30 | 3 | 103 | 106
CN1CCN(c2ncnc3oc(-c4ccccc4)c(-c4ccccc4)c23)CC1 | -20 | -1 | 101 | 101
O=C(O)c1c(CNCc2ccco2)c2ccccc2n1Cc1ccccc1 | 34 | -18 | 102 | 105
O=C(c1ccccc1C(=O)N1CCOCC1)N1CCOCC1 | -6 | 12 | 98 | 100

Complete entries from above.
Listed for COc1cc2c(cc1NC(=O)CN1CC(C)OC(C)C1)oc1ccccc12 (stereo unspecified) = Mtb MbtI inh: 44; MenB inh: 0; Polio RdRp inh: 111; Polio RdRp inh intensity: 107
Listed for COC(=O)c1ccc(COc2ncnc3c2cnn3-c2ccccc2)o1 = Mtb MbtI inh: 15; MenB inh: 10; Polio RdRp inh: 102; Polio RdRp inh intensity: 106

Going on with the list.
SMILES | Mtb MbtI inh | MenB inh | Polio RdRp inh | Polio RdRp inh intensity
Cc1cc(=O)c2ccc(Cl)cc2[nH]1 | 12 | 7 | 102 | 102
c1cncc(C2=Nc3ccccc3C(c3cccnc3)=NN2)c1 | -1 | -47 | 105 | 101
COc1ccccc1S(=O)(=O)N(C)Cc1ccccc1 | 14 | 13 | 102 | 104
O=C(O)[C@@H](c1ccccc1)N1C(=O)c2ccccc2C1=O | -2 | -10 | 101 | 99
CCOC(=O)c1ccc(NC(=O)CSc2nccn2-c2cccc(C)c2C)cc1 | 1 | -16 | 102 | 97
Clc1ccc(/C=N/N2CCOCC2)cc1 | -7 | 0 | 103 | 106
N#Cc1cccnc1Oc1ccccc1 | 3 | -8 | 113 | 113
CN(C)c1ccc(P(=O)(C2CCCC2=O)C2CCCC2=O)cc1 (stereo unspecified) | 1 | -19 | 102 | 101
O=[P+](c1ccccc1)c1ccccc1 | nt | -24 | 101 | 110
Cc1ccccc1N1C(=O)CS/C1=C(/C#N)C(=O)N1CCCCC1 | 5 | nt | 104 | 106
COc1ccc(CC(=O)NC2CCN(CC(=O)c3ccc(F)cc3)CC2)cc1OC | -2 | -51 | 100 | 105
COc1ccc(NC(=O)C2CC(c3cccc(OC)c3)=NO2)cc1 (stereo unspecified) | -5 | -8 | 103 | 109
c1csc(-c2cc(N3CCCCC3)c3ccccc3n2)c1 | 15 | 4 | 110 | 107
C/C(=N\NC(=O)c1cccnc1)c1ccc(-n2ccnc2)cc1 | 10 | -18 | 104 | 103
COCCN1COc2c(cc(Cl)c3cccnc23)C1 | 1 | -24 | 133 | 152
O=C(CSc1cc(Cl)ccc1Cl)NC1CC1 | -3 | 5 | 97 | 99
CN(C)c1ccc(C=Nc2ccc(C(=O)O)cc2)cc1 | 3 | nt | 100 | 98
CC/C(O)=C(\C#N)c1nnc2n1CCCCC2 | 17 | 7 | 104 | 102
C/C=N/Nc1nc(C)cc(C)n1 | 10 | -48 | 106 | 107
CC1CCCCN1CC(=O)NCc1ccc(Cl)cc1 (stereo unspecified) | 1 | -20 | 105 | 114
Cc1onc(-c2ccccc2)c1C(=O)NNc1ccc(Cl)cc1 | 4 | -12 | 101 | 104
Cc1ccc2nc(Cc3nc4ccc(C)cc4[nH]3)[nH]c2c1 | -11 | -71 | 101 | 97
CN(C)c1nc(-c2ccc(OC(F)F)cc2OC(F)F)cs1 | -5 | 3 | 111 | 113
N#Cc1c(N)sc2c1CCCC2 | 81 | -11 | 96 | 100
CN1C=C(C(F)(F)F)C=CC1=C1C(=O)c2ccccc2C1=O | 11 | -275 | 103 | 108
SMILES | Mtb MbtI inh | MenB inh | Polio RdRp inh | Polio RdRp inh intensity
CS(=O)(=O)c1ccccc1F | 10 | -20 | 103 | 108
COC(Cn1c(SCC(=O)Nc2cc(Cl)cc(Cl)c2)nnc1-c1ccccc1)OC | -6 | -16 | 105 | 111
C=CCN1C(=O)C(Cc2ccc(F)cc2)S/C1=N\N=C/c1ccco1 (stereo unspecified) | -5 | -83 | 105 | 100
CS(=O)(=O)N1CCN(C(=S)NC2CCCCC2)CC1 | 0 | -22 | 100 | 101
O=C1CSC(c2ccccc2F)N1 (stereo unspecified) | -4 | -14 | 105 | 105
CCOC(=O)c1c(Cn2nnc3ccccc32)nc2ccccc2c1C | -3 | -8 | 102 | 100
CCc1ccc(Nc2nnc(SCC(=O)O)s2)cc1 | 52 | 5 | 105 | 99
S=C(CN1CCCC1=S)N1CCOCC1 | 0 | -1 | 98 | 102
CCOC(=O)c1cnc2sc3c(n2c1=O)CCCC3 | 107 | -40 | 119 | 129
NC(Cc1ccccc1)Cc1ccccc1 | -14 | -34 | 99 | 99
CC(=O)N(C)c1ccc(N=Cc2cccs2)cc1 | -6 | -36 | 100 | 103
CC(=O)Nc1ccc(S(=O)(=O)CCO)cc1 | nt | -1 | 107 | 110
CCC(=O)Nc1ccc(C(=O)COc2cccc(-n3cnnn3)c2)cc1 | -3 | -18 | 108 | 103
O=C1c2ccccc2-c2nc3ccccc3nc21 | 5 | 12 | 100 | 102
C=CCSc1nnc2n(-c3ccc(OC)cc3)c(=O)c3c4c(sc3n12)COC(C(C)C)C4 (stereo unspecified) | 9 | 7 | 100 | 100
Cc1ccc2nc3c4ccccc4cnc3n2c1 | -5 | 0 | 102 | 98
CC(C)OC(=O)c1ccc2c(c1)no[n+]2[O-] | -9 | -6 | 101 | 96
CC(C)NC(=O)N1CCCN(c2nc3ccc(Cl)cc3s2)CC1 | nt | -17 | 102 | 102
COC(=O)c1cc(NC(=O)c2ccc(N3CC4CC(C3)c3cccc(=O)n3C4)c(N)c2)cc(C(=O)OC)c1 (stereo unspecified) | -2 | -16 | 101 | 103
O=C1OC(c2ccc(-c3ccccc3)cc2)=N/C1=C\c1ccco1 | -5 | -19 | 102 | 104
CC1Cc2ccccc2N1C(=O)c1cc(Cl)cc(Cl)c1 (stereo unspecified) | -12 | nt | 102 | 108
CCc1ccc2[nH]c(=O)c(CN(CCO)C(=S)NCc3ccco3)cc2c1 | -53 | -24 | 102 | 105
O=C(O)CSc1nc2scc(-c3ccccc3)c2c(=O)[nH]1 | 14 | 12 | 100 | 103
Cc1cc(Cl)ccc1OCCCC(=O)NCc1ccccn1 | -5 | -15 | 106 | 102
COC(=O)c1ccccc1C(=O)c1ccccc1 | nt | -24 | 100 | 87

Of the compounds above, five contain an NH in an aromatic ring:
SMILES | Mtb MbtI inh | MenB inh | Polio RdRp inh | Polio RdRp inh intensity
O=C(CSc1ncn[nH]1)c1ccco1 | 0 | -7 | 101 | 106
Cc1cc(=O)c2ccc(Cl)cc2[nH]1 | 12 | 7 | 102 | 102
Cc1ccc2nc(Cc3nc4ccc(C)cc4[nH]3)[nH]c2c1 | -11 | -71 | 101 | 97
CCc1ccc2[nH]c(=O)c(CN(CCO)C(=S)NCc3ccco3)cc2c1 | -53 | -24 | 102 | 105
O=C(O)CSc1nc2scc(-c3ccccc3)c2c(=O)[nH]1 | 14 | 12 | 100 | 103

Following part:
SMILES | Mtb MbtI inh | MenB inh | Polio RdRp inh | Polio RdRp inh intensity
O=C(CSc1ccccc1)N1CCN(c2ccc(F)cc2)CC1 | 10 | -2 | 102 | 98
O=C(Nc1c(C(=O)c2ccccc2)oc2ccccc12)c1cccs1 | -70 | -50 | 105 | 106
O=C(NCCSCc1ccco1)C1CCC1 | 1 | -25 | 101 | 104
O=C1NC(=[N+]2CCCCC2)S/C1=C\c1ccc(-c2ccc(Br)cc2)o1 | -1 | -21 | 106 | 110
COc1ccc2[nH]cc(C(=O)NCCc3ccccc3)c(=O)c2c1 | 37 | -16 | 101 | 104
CC(C)CNC(=O)C1CC(=O)N(c2ccc(OCC(=O)Nc3ccc(F)cc3)cc2)C1 (stereo unspecified) | -5 | -2 | 101 | 106
CC1CCCCC1N=C1NN=C(c2ccccc2)CS1 (stereo unspecified) | -1 | -12 | 101 | 104
C=C1C2CC[C@H]3[C@]4(C)C[C@H](OC5OC(CO)C(OS(=O)(=O)O)C(OS(=O)(=O)O)C5OC(=O)CC(C)C)C[C@@H](C(=O)O)[C@H]4CC[C@]3(C2)[C@H]1O (stereo partly specified) | -4 | 3 | 100 | 102
COc1cccc(/C=C2\CC(C)C/C(=C\c3ccccc3OC)C2=O)c1 (stereo unspecified) | -7 | -12 | 105 | 105
Brc1ccc(CN2CCN(Cc3ccco3)CC2)cc1 | -2 | -9 | 102 | 102
COc1ccc(CNCCNC(=O)c2cccs2)c(OC)c1OC | -13 | -24 | 102 | 103
O=C1CCSC(=O)N1CN1CCN(S(=O)(=O)c2ccc(Cl)cc2)CC1 | -6 | -3 | 104 | 102
CSc1n[nH]c(=O)n1C1CCCCC1 | -10 | 6 | 105 | 103
Cc1noc(C)c1S(N)(=O)=O | -4 | -4 | 102 | 98
CCCCC1CN2CCc3c([nH]c4ccccc34)C2(C)C1 (stereo unspecified) | nt | -1 | 108 | 118
CCCn1c2c(c(=O)n(C)c1=O)C(c1ccc(Br)cc1)C1=C(COC1=O)N2 (stereo unspecified) | 107 | -20 | 108 | 95
Cc1cc(NC(=O)CSCc2nc3c(nnn3Cc3c(F)cccc3Cl)c(=O)[nH]2)no1 | -18 | 13 | 102 | 102
Cc1ccc(C(=O)C(C)OC(=O)c2cc(C)nc3ccccc23)cc1 (stereo unspecified) | nt | -27 | 99 | 101
CCN(CC)S(=O)(=O)c1ccc(NC(=O)Cc2cccs2)cc1 | -6 | -21 | 104 | 101
N#CC1(NC(=O)CSc2nnc(-c3ccc4c(c3)OCO4)o2)CCCCC1 | -6 | -14 | 104 | 109
Cc1ccc(S(=O)(=O)NCc2csc(-c3ccccc3)n2)c(C)c1 | 19 | -10 | 104 | 105
O=C(Nc1ccccc1C(=O)O)c1cccc(Cl)c1 | 50 | -11 | 101 | 103
COc1ccc(-c2noc(CNC(=O)c3ccc(C)cc3C)n2)cc1OC | -5 | -77 | 102 | 104
O=C(O)c1ccc(-n2cnc3ccccc3c2=O)cc1 | -6 | nt | 101 | 104
COc1ccc(NC(=O)c2c[nH]c(=O)[nH]c2=O)cc1 | 23 | -14 | 104 | 111
SMILES | Mtb MbtI inh | MenB inh | Polio RdRp inh | Polio RdRp inh intensity
S=c1[nH]nc(COc2ccccc2Cl)o1 | nt | -8 | 99 | 101
O=C1CN(c2ccccc2F)C(=O)CN1/N=C/c1cccs1 | 13 | -18 | 102 | 96
Cc1ccccc1Nc1ncccc1C(=O)N1CCOCC1 | -10 | -31 | 103 | 103
CCSc1ccccc1C(=O)NCCCn1ccnc1 | 18 | 40* | 102 | 100
N#CSc1ccc(NCCO)cc1C(F)(F)F | 58* | -31 | 103 | 101
O=c1oc2c3c(ccc2c2c1CCC2)OCN(c1ccccc1)C3 | -8 | -14 | 103 | 102
CCOC(=O)c1cc2occc2n1CCc1ccccc1 | 26 | -101 | 102 | 103
C=CCN1C(=O)/C(=C\c2ccccc2)SC1=S | 4 | -15 | 102 | 106
O=C(c1ccccc1)N1CCN(c2cccc(Cl)c2)CC1 | 2 | -21 | nt | nt
CCOC(=O)C(C)Sc1nc(-c2cccs2)ccc1C#N (stereo unspecified) | nt | -20 | 109 | 116
N#Cc1cc(Cc2ccc(N)c(C#N)c2)ccc1N | nt | -13 | 106 | 107
